# TRPV1 potentiator = HTS Assay for Compounds that Act as Potentiators of the Vanilloid Receptor 1; TRPV1-expressing cells, Fluo-8 calcium influx, capsaicin EC20 potentiation; host cell line not named in the record; control for the full effect not named in the record; potentiation, % at 8.33 µM; 320,000 compounds, 0.02% hits; active means potentiation above 80%; inconclusive means 30% to 80%; inactive means below 30%; also: 0% is about no effect
# Target sequence (Q8NER1 whole entry, looked up): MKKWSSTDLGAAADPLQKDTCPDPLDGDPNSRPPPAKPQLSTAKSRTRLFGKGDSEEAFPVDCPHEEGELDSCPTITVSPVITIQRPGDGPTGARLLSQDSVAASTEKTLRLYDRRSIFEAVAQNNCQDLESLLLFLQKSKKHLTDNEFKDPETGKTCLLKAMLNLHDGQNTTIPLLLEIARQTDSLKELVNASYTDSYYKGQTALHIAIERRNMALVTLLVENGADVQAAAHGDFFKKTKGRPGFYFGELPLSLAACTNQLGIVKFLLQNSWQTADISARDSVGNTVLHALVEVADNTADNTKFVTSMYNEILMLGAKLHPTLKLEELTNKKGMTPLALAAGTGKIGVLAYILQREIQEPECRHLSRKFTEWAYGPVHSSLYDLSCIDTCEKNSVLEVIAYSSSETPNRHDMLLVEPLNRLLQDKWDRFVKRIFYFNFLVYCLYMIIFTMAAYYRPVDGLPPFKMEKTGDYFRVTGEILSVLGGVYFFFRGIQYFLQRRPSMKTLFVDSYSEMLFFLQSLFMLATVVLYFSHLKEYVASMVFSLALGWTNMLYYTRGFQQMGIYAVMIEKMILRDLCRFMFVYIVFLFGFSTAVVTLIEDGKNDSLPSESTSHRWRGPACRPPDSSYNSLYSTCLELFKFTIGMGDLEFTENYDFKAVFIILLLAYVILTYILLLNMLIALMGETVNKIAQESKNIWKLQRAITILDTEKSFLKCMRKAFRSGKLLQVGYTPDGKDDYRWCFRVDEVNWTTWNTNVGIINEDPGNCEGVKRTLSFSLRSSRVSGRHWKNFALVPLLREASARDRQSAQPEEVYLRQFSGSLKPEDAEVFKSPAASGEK
#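 Cells expressing TRPV1 were dye-loaded with Fluo-8 and read kinetically: 10 s baseline, 3 min after compound (agonist portion), then 2 min after EC20 capsaicin (allosteric enhancer portion). Calcium-bound dye fluorescence at 480/520 nm.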
# gsp antag = qHTS for Antagonists of gsp, the Etiologic Mutation Responsible for Fibrous Dysplasia/McCune-Albright Syndrome: qHTS; gsp-mutant cells, cAMP HTRF, 30 min; control for the full effect not named in the record; Potency, µM (doses to about 76.9 µM), for inactives: at the highest dose activity change, negative = inhibition, hits mostly inhibitors; 340,000 compounds, 0.4% hits; active = falling curve of any shape with a large fitted effect; inconclusive = falling curve, mostly with a smaller effect; inactive = flat or rising curve; cell line not stated here;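 also: intracellular cAMP measured with PDE inhibitor Ro 20-1724 present during compound exposure; potency is read from the fitted curve at half-maximal effect; % is scaled to controls: 0 for no effect and ±100 for the full control effect; nearly all actives have a fitted effect of over 65% in size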
#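 HTRF cAMP measurement after 30 min RT detection following 30 min, 37C compound treatment alongside […] (added as 300 uM solution) in G418-selected cells seeded at 2000/well and grown 16–24 h.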
# gsp agonist = qHTS for Agonist of gsp, the Etiologic Mutation Responsible for Fibrous Dysplasia/McCune-Albright Syndrome: qHTS; gsp mutant cells, cAMP HTRF, 30 min; control for the full effect not named in the record; Potency, µM (titrated, usually from 76.9 µM), inactives show top-dose activation (cAMP increase), usual class: activators; 340,000 compounds, 0.13% hits; active = well fitted activation curve with a large enough effect; inconclusive = small, poorly fitted or top-dose-only effect, or another doubt; inactive = no such curve, though single readings can be large or run the other way; cell line not stated here;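 also: phosphodiesterase inhibitor Ro 20-1724 added with compounds to block cAMP breakdown; potency is read from the fitted curve at half-maximal effect; nearly all actives have a fitted effect of over 60% in size; about a fifth of the inactives were tested at one dose only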
#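 Cells stably selected in G418 were plated at 2000/well, grown 16-24 hr, then given compounds in DMSO with the PDE inhibitor […] (300 uM solution added) for 30 min at 37C; cAMP was read by HTRF.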
# Menin MLL FP FL = qHTS Assay for Inhibitors Targeting the Menin-MLL Interaction in MLL Related Leukemias: Competition With Fluorescein Labeled MLL-derived Peptide | AID 1766, 2009 | Fluorescence polarization, fluorescein-MLL peptide displacement from menin | FP activity change, % at 61.4 µM | 290,000 tested, under 10 active; inconclusive = falling polarisation curve, or a change in total fluorescence; inactive = total fluorescence flat and polarisation flat or rising; no compound was filed as active; the % refers to the polarisation; negative = inhibition;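 also: % of control where 0% means no effect; inhibitors lower the polarisation; unlabelled MLL peptide was the positive control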
# CtBP-E1A inh = qHTS Assay for Inhibitors of the CtBP/E1A Interaction; AlphaScreen GST-E1A/His-CtBP binding, 1536-well; active compounds read low; control for the full effect not named in the record; AID 651724, 2012; activity change, % (concentration not given with the values); 340,000 compounds, 0.49% hits; in the data active means activity change below about -65%; inconclusive means about -30% to -65%; inactive means above about -30%; also: % is scaled to controls: 0 for no effect and ±100 for the full control effect
#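 Protein mix (5X: 125 nM each GST-E1A, His-CtBP) was incubated with pinned compound 2 h at 37 deg C in dark, in 50 mM Tris pH 8.0 buffer with 300 mM NaCl. Glutathione donor and nickel acceptor beads followed; AlphaScreen signal read after 1 h.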
# ClpP mod = qHTS Assay for Activators of ClpP; 340,000 compounds, 1.9% hits; Potency, µM (series often up to 57.5 µM), for inactives: at the highest dose activity change, negative = active; purified B. subtilis ClpP, FRET peptide cleavage, 20 min; active = well fitted falling curve with a large enough effect; inconclusive = small, poorly fitted or top-dose-only effect; inactive = no such curve, though single readings can be large or run the other way; also: potency is read from the fitted curve at half-maximal effect; the source files actives as falling curves though it sought activators and does not explain the sign; nearly all actives have a fitted effect of over 65% in size; many hits overshoot -100%
# Target sequence (P80244 whole entry, looked up): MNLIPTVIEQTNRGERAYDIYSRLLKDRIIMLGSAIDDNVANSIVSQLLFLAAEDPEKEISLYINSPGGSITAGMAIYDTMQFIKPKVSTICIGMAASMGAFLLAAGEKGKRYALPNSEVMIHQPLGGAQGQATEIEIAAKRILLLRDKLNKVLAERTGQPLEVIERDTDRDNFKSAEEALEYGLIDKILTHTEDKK
#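 Purified B. subtilis ClpP, 10 microg/mL final in Tris/HCl pH8 with KCl, BSA, glycerol and Tween-20, cleaved an Abz/nitrotyrosine-quenched decapeptide. Fluorescence (ex 320, em 430) was read at 0 and 20 min at room temperature. Delta was normalized to 5.8 microM ADEP and DMSO/no-enzyme controls.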
# Sfp PPTase inh = qHTS Assay for Inhibitors of Bacillus subtilis Sfp phosphopantetheinyl transferase (PPTase); 310,000 compounds, 3.5% hits; Potency, µM, inactives show max response, negative = inhibition, usual class: inhibitors; Biochemical Sfp PPTase activity, qHTS; AID 1490, 2009; 4'-phosphopantetheinyl transferase ffp (Bacillus subtilis), Q9F4F7; active = well fitted inhibition curve with a large enough effect; inconclusive = small, poorly fitted or top-dose-only effect, or another doubt; inactive = no such curve, though single readings can be large or run the other way;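 also: the enzyme is Sfp with the accession as filed and its product quenches rhodamine fluorescence; potency is read from the fitted curve at half-maximal effect; 0% = enzyme reaction without inhibitor and -100% = no enzyme wells; top concentration of the series not given in the record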
#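 Buffer: 50 mM Hepes-Na pH 7.6, 10 mM MgCl2, 0.01% Nonidet P-40, 0.01% BSA. Enzyme 15 nM, pre-exposed to compound 15 min; substrates then added and fluorescence change tracked over 30 min.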
# Active calls of the source: *; ? = inconclusive; . = no result given; [ ] = another dose, or the depositor's remark.
# Values run as follows: TRPV1 potentiator, gsp agonist, CtBP-E1A inh, ClpP mod, gsp antag, Sfp PPTase inh, Menin MLL FP FL
- Nc1nn(-c2ccccc2)nc1C(=O)OCc1ccccc1
  -9, -27%[15.4 µM], 0, 3.8%, -8%, -5%, -0.6
- COc1ccc2c(c1)C(C)=CC(C)(C)N2C(=O)C(C)N1C(=O)c2ccccc2C1=O (configuration not stated)
  ?, 7%, 2, 0.5%, 7%, -14%, 1.9
- COc1cc(SC)ccc1C(=O)OCC(=O)NC(=O)NC(C)C
  -23, -2%, 0, ., -3%, 8%, -1.1
- O=C(O)c1cccc(NC(=S)N/N=C/c2cccnc2)c1
  3, 16%, 5, ., 7%, ?, 4.1
- CC(C)(C)OC(=O)N1CCC(C(=O)Nc2ccc(C(=O)NCc3ccccc3)cc2)CC1
  ., ., -1, 0.6%, -12%, ., .
- Cc1ccc(-c2csc3ncnc(SCC(N)=O)c23)cc1
  1, -11%[15.4 µM], 20, ., 19%, -23%, -3.7
- O=C(CSC(=S)N1CCCC1)Nc1ncc(Cl)cc1Cl
  3, ?, 0, -3.9%, 0%, ., .
- O=c1c2ccccc2nc(SCc2ccc([N+](=O)[O-])cc2)n1CCCO
  -7, 16%, 0, 0.7%, 10%, -8%, 28
- CC(=O)c1cc2c(cc1NC(=O)CSc1nc3ccccc3[nH]1)OCO2
  -4, ., ., ., ., 2%, 2.3
- CCN(C(C)=O)c1nc(CCl)cs1
  -8, 3%, 7, ., 6%, 1%, -1.9
- Cc1noc(C)c1NC(=O)N(C)C[C@H]1Oc2ccc(NC(=O)CCN3CCOCC3)cc2C(=O)N([C@H](C)CO)C[C@@H]1C
  ., ?, 3, -4.2%, 7%, ., .
- CCOc1ccc(NC(=O)c2ccccc2NC(=O)CN2CCN(C(C)=O)CC2)cc1
  4, -4%, 1, 0.2%, -10%, -6%, 0.8
- CC(C)n1c(=S)[nH]c2scc(-c3cccs3)c2c1=O
  -4, 72%, -1, -0.1%, -11%, 40µM*, 18
- CCCC(=O)OC1CC(C)N(C(=O)c2ccccc2)c2ccc(C)cc21 (configuration not stated)
  25, -9%, 1, 0.6%, -15%, 6%, 3.5
- O=C1NC(=Nc2ccccc2Br)SC1(CO)CO
  2, -5%, ., 1.1%, 7%, 18%, 3.7
- CC(=O)N1CCC(N(CCN2CCOCC2)C(=S)Nc2ccc(C)cc2)CC1
  -2, ?, 4, ., -9%, 50µM*, 2.4
- CCOc1ccc(C(=O)OCCCN(C)C)cc1
  -1, -25%, 12, -3.8%, 9%, 9%, 3.2
- O=C(CN1C(=O)c2cccc3cccc1c23)Nc1cccnc1
  6, 13%, 4, -2.0%, 24%, -2%, 1.5
- COc1cccc(CN2C(=O)CCC2(C)C(=O)NC2CCCC2)c1 (configuration not stated)
  3, -4%, 3, -1.3%, 1%, 14%, 0.0
- CC(CN1CCCCCC1)C(=O)NN (configuration not stated)
  0, 16%[15.4 µM], -1, ., -10%, 11%, -1.3
- COc1cccc(N2CCN(C(=O)C3CCCN(S(=O)(=O)c4cnc[nH]4)C3)CC2)c1 (configuration not stated)
  ., -10%, 0, -0.7%, 3%, 12%, -3.2
- Cc1oc(-c2ccc(Cl)cc2)nc1CS(=O)CC(=O)NCc1ccc2c(c1)OCO2 (configuration not stated)
  -5, 7%, 4, -9.0%, -5%, -2%, -0.2
- CC(C)NC(=S)NC(=O)c1ccc(-c2ccccc2)cc1
  4, -14%, -19, 12%, -9%, -20%, 1.6
- COCCN(C(=O)Cc1cccs1)c1nnc(-c2ccncc2)s1
  -20, -18%, -1, 172%, -17%, 7%, 3.0
- Cc1cc(C(=O)NNC(=O)c2ccc(Cl)cc2Cl)c(C)o1
  -1, 26%, -19, -4.3%, 9%, ., .
- CCN(CC)S(=O)(=O)c1ccc(C(=O)C(C#N)c2ccccn2)cc1 (configuration not stated)
  1, 0%, 5, -1.2%, -3%, -7%, 3.1
- CCCNC(=O)N(C)C[C@H]1Oc2ncc(C#CCc3ccccc3)cc2C(=O)N([C@H](C)CO)C[C@H]1C
  ., -86%[inhibitor], 5, -21%, ., ., .
- CCOc1cc(/C=C2/C(=N)N3C(=NC2=O)SN=C3S(C)(=O)=O)ccc1OC(=O)c1ccco1
  4, ?, ?, -5.4%, 0%, -3%, .
- CCOC(=O)C1CCCN(C(=O)CNC(=O)Cn2ccc3ccccc3c2=O)C1 (configuration not stated)
  5, -40%[inhibitor], 2, ?, 4%, 14%, 0.6
- COC(=O)c1ccc(CSc2nc(N3CCOCC3)c3c(c2C#N)CC(C)(C)OC3)o1
  16, -2%, -2, -1.2%, -1%, ?, 3.7
- CC1(C)Cc2c(C#N)c(NCCN3CCOCC3)nc(-c3ccccc3)c2CO1
  -29, -15%[15.4 µM], 5, ., -4%, 2%, 0.9
- Cc1cc(C(=O)Nc2cccnc2)on1
  -9, -1%, -2, 0.7%, 10%, 17%, -6.0
- Nc1c(C(=O)NC23CC4CC(CC(C4)C2)C3)sc2nc3c(c(C(F)(F)F)c12)CCC3
  4, -20%, 7, -2.5%, 0%, ?, 2.3
- O=S(=O)(c1cccc(-c2nnco2)c1)N1CCOCC1
  -1, 1%[15.4 µM], -14, ., -39%, 6%, -2.2
- CC/C(C)=N/Nc1nc(-c2cc3cccc(OC)c3oc2=O)cs1
  -6, -1%[15.4 µM], -15, ., -2%, -28%, 0.8
- Cc1ccc(C)c(N2CCN(C(=S)NC3CCCCC3)CC2)c1
  -6, -3%, 8, 1.7%, -1%, 15%, 2.1
- COc1ccc(N=C2C(=Nc3ccc(OC)cc3)N(c3ccc(OC)cc3)C(=S)N2C(=O)c2ccc(OC)cc2)cc1
  -7, 6%, -12, -1.8%, -14%, -25%, 1.0
- CCOc1cccc(N2C(=O)CC(n3cnc4ccccc43)C2=O)c1 (configuration not stated)
  9, -42%[inhibitor], 4, 1.5%, -28%, 6%, -0.1
- Clc1ccc(Cn2cccc2C2=NCCO2)cc1
  29, -21%, -4, -0.7%, -2%, -1%, 1.2
- CC1CCC(C(C)C)C(OCC[N+](C)(C)C)C1 (configuration not stated)
  -9, -35%[inhibitor], -4, -1.7%, 7%, -1%, -1.1
- COc1ccc(Cl)cc1NC(=O)CN(C)C1CCCCC1
  -9, -28%, -2, -1.1%, -6%, 6%, 0.4
- CCCCNC(=S)N(CCN(CC)CC)Cc1cc2cc3c(cc2[nH]c1=O)OCCO3
  -12, 6%, 1, 3.8%, -8%, -6%, -2.1
- Cc1ccc(OCC(O)CN2CCC(Cc3ccccc3)CC2)c(C)c1 (configuration not stated)
  3, ?, -11, 1.0%, 0%, 5%, .
- CCOc1ccc(OCc2ccc(C(=O)NN=Cc3ccc[nH]3)cc2)cc1
  ., 0%[15.4 µM], 3, 0.9%, 7%, ., .
- O=C(CSc1cccs1)NCCc1ccccc1
  -28, 21%, -2, -2.6%, 12%, 11%, 2.0
- COc1ccc(C(=O)C2CCN(CC(=O)NCc3ccccc3)CC2)cc1
  -2, 11%[15.4 µM], 5, -2.3%, -2%, -5%, 0.0
- CCC(C)[C@H](NC(=O)N1CCCC1)C(=O)OC (some centres not stated)
  8, -16%, 6, -0.5%, 7%, -5%, 6.1
- CCC(C)(C(=O)NC1CCCC1)N(CC1CCCO1)C(=O)CNC(=O)c1ccccc1 (configuration not stated)
  -2, -23%, 4, -5.1%, -2%, 19%, 2.6
- CN(C)N=Nc1ccc(S(=O)(=O)NC(=O)Cc2ccccc2)cc1
  ?, -2%, 2, ., -9%, 18%, 3.7
- Cc1cc(C)c(C)c(S(=O)(=O)N2CCSCC2)c1C
  13, -33%[inhibitor], ., -0.7%, -2%, 4%, -0.2
- Cc1nn(CC(=O)OCC(=O)c2ccccc2)c(C)c1[N+](=O)[O-]
  ., -6%[15.4 µM], 11, 1.0%, 2%, ., .
- O=C(NNC(=O)C1C2CCC(C2)C1C(=O)O)c1ccc(Cl)cc1 (configuration not stated)
  -2, -21%[15.4 µM], ., ., 3%, -12%, -0.3
- CC(CCc1ccccc1)NCC(O)COc1ccccc1 (configuration not stated)
  -2, 4%, ., -0.8%, 11%, 14%, 1.9
- Cc1cccc(OC(=O)c2ccc3c(=O)n4c(nc3c2)CCC4)c1
  ., -96%[inhibitor], -4, -4.4%, ., ., .
- Cc1ccccc1-c1nc(CS(=O)(=O)CC(=O)NCc2ccccc2)c(C)o1
  -24, -38%[inhibitor], -14, 0.8%, -12%, 9%, 4.2
- O=C(C[C@@H]1C[C@@H]2c3cc(NS(=O)(=O)c4ccc(F)cc4)ccc3O[C@@H]2[C@H](CO)O1)N1CCc2ccccc2C1
  ., -5%, 3, 0.5%, ., ., .

# Sorted by heavy-atom count (smallest number first): some entries from above.
# Values run as follows: TRPV1 potentiator, gsp agonist, CtBP-E1A inh, ClpP mod, gsp antag, Sfp PPTase inh, Menin MLL FP FL
- CC(CCc1ccccc1)NCC(O)COc1ccccc1 (configuration not stated)
  -2, 4%, ., -0.8%, 11%, 14%, 1.9
- CN(C)N=Nc1ccc(S(=O)(=O)NC(=O)Cc2ccccc2)cc1
  ?, -2%, 2, ., -9%, 18%, 3.7
- O=C(C[C@@H]1C[C@@H]2c3cc(NS(=O)(=O)c4ccc(F)cc4)ccc3O[C@@H]2[C@H](CO)O1)N1CCc2ccccc2C1
  ., -5%, 3, 0.5%, ., ., .

# Bioassay records deposited in PubChem by National Center for Advancing Translational Sciences (NCATS).
